RE007 growth inh: qHTS Assay for Inhibitors of the HIV-1 protein Vpr; S. pombe RE007 Vpr strain, BacTiter-Glo ATP luminescence, 24 h; control for the full effect not named in the record; Potency, µM (series often up to 92.2 µM), inactives show at the top dose activity change, negative = less growth; 0.21% of 360,000 active; active = well fitted falling curve with a large enough effect; inconclusive = small, poorly fitted or top-dose-only effect; inactive = no such curve, though single readings can be large or run the other way;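 note: % is set by controls: 0 for no effect and ±100 for the full control effect; nearly all actives have a fitted effect of over 50% in size; the assay follows cell death caused by Vpr and the record does not say whether a fall means rescue or toxicity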
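Fission yeast strain RE007, carrying one chromosomally integrated HIV-1 vpr copy, was seeded at OD 0.01 in PMG+AL medium with 23 nL pinned compound. After 24 h at 30 °C and 99% humidity, viability was read by BacTiter-Glo luminescence.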
Cruzain inh Det: qHTS Assay for Promiscuous and Specific Inhibitors of Cruzain (with detergent); purified cruzain, Z-FR-AMC fluorescence, 0.01% Triton; Potency, µM, without a hit: max response, negative = inhibition, actives largely listed as inhibitors; 0.43% of 200,000 active; Cruzipain (Trypanosoma cruzi), P25779; AID 1478, 2009;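 note: plate controls were neutral wells for no effect and buffer without enzyme for full effect; nearly all actives have a fitted effect of over 40% in size; top concentration of the series not given in the record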
Target sequence (P25779 123-467 limits assumed): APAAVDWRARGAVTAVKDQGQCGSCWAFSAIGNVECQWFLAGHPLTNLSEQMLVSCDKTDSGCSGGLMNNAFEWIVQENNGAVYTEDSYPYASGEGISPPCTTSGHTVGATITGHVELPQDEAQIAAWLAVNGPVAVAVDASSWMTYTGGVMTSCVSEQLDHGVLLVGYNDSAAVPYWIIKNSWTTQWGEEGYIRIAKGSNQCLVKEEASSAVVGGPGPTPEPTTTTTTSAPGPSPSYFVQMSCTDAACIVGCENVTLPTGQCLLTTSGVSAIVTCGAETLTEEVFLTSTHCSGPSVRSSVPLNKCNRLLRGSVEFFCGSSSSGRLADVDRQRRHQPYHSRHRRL
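Enzyme 1.5 nM, Z-FR-AMC 2 uM, NaOAc 100 mM pH 5.5, DTT 5 mM, Triton X-100 0.01%; 15 min RT compound preincubation; kinetic ex360/em450, 60 s delta.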
MARV entry inh: qHTS for inhibitors of binding or entry into cells for Marburg Virus; Marburg virus pseudotyped entry inhibition, cell reporter; control for the full effect not named in the record; about a third of the inactives were read at about 46 µM; Potency, µM (top dose mostly 37.8 µM), inactives show at the top dose activity change, negative = inhibition, most hits filed as inhibitors; 1.8% of 300,000 active; active = well fitted inhibition curve with a large enough effect; inconclusive = small, poorly fitted or top-dose-only effect, or effect the other way; inactive = flat fitted curve, though single readings scatter; tested in HEK293 cells; about a fifth of its hits are not listed in these tables; note: % is set by controls: 0 for no effect and ±100 for the full control effect; luciferase read-out
LASV entry inh: qHTS for Inhibitors of binding or entry into cells for Lassa Virus | Lassa virus pseudotype entry inhibition, cell reporter; control for the full effect not named in the record | Potency, µM (highest dose often 37.9 µM), inactives show top-dose activity change, negative = inhibition, actives largely listed as inhibitors | 1.2% of 300,000 active | AID 540256, 2011; active means well fitted inhibition curve with a large enough effect; inconclusive means small, poorly fitted or top-dose-only effect, or effect the other way; inactive means flat fitted curve, though single readings scatter; tested in HEK293 cells; note: % is set by controls: 0 for no effect and ±100 for the full control effect; nearly all actives have a fitted effect of over 50% in size; luciferase read-out
NS1 function inh: qHTS Assay for Inhibitors of Influenza NS1 Protein Function. 0.4% of 270,000 active. Potency, µM (doses to about 46.1 µM), for the others: at the top dose activity, positive = more growth. AID 2326, 2010. S. cerevisiae slowed by influenza A NS1, growth recovery by OD600; active means well fitted rising curve with a large enough effect; inconclusive means small, poorly fitted or top-dose-only effect; inactive means no such curve, though single readings can be large or run the other way; note: nearly all actives have a fitted effect of over 50% in size
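Recovery from NS1-induced slow growth read by OD600 in budding yeast switched to galactose assay medium (pH 6.0, -URA) at 1:100 dilution. Compound 23 nl per well; the matching strain lacking NS1 serves as control.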
2A StopGo: High Throughput Screening for Foot and Mouth Disease Virus Antivirals; human cells with a luciferase reporter of 2A StopGo recoding; control for the full effect not named in the record; Potency, µM (highest dose often 57.9 µM), for inactives: at the top dose signal change, negative = less light; 1.2% of 410,000 active; active = well fitted falling curve with a large enough effect; inconclusive = small, poorly fitted or top-dose-only effect; inactive = no such curve, though single readings can be large or run the other way; tested in HEK293T cells; note: % is set by controls: 0 for no effect and ±100 for the full control effect; nearly all actives have a fitted effect of over 45% in size; luciferase light after 4 h
SARS PLpro yeast: qHTS of Yeast-based Assay for SARS-CoV PLP; Potency, µM (highest dose often 32.9 µM), for the others: at the highest dose activity, positive = growth rescue; S. cerevisiae expressing SARS-CoV PLpro, growth rescue; control for the full effect not named in the record; AID 485353, 2010; 0.19% of 330,000 active; active means well fitted rising curve with a large enough effect; inconclusive means small, poorly fitted or top-dose-only effect; inactive means no such curve, though single readings can be large or run the other way; note: 0% is about no effect; nearly all actives have a fitted effect of over 55% in size; growth read by luminescence after 48 h
Cruzain inh noDet: qHTS Assay for Promiscuous and Specific Inhibitors of Cruzain (without detergent) | Potency, µM, for inactives: max response, negative = inhibition, most hits filed as inhibitors | purified cruzain, Z-FR-AMC fluorescence, no detergent | 2.3% of 200,000 active | AID 1476, 2009;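 note: plate controls were enzyme without inhibitor for no effect and buffer without enzyme for full effect; nearly all actives have a fitted effect of over 40% in size; top concentration of the series not given in the record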
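Detergent-free condition (0.00005% Triton X-100) in acetate buffer pH 5.5 with DTT. 1.5 nM enzyme and compound were pre-mixed 15 min, then 2 uM Z-FR-AMC substrate added; reaction progress from fluorescence change between first and third reads (60 s).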
* = called active by the depositor; [ ] = another dose, or the depositor's remark. Unless noted, calls come from the whole dose curve; as a rule, active = well fitted curve in the direction sought with a large enough effect; inconclusive = small, poorly fitted or top-dose-only effect, or another doubt; inactive = no such curve, though single readings can be large; an effect the other way counts as inactive or inconclusive. Potency is the fitted concentration of half-maximal effect.

Screening COc1ccc(NC(=O)CCNS(=O)(=O)c2ccc3c(c2)CCN3C(=O)C2CC2)cc1Cl returned Cruzain inh Det -3.8%, LASV entry inh -12.6%[46.1 µM], 2A StopGo -18.3% and Cruzain inh noDet -0.1%.
For CN1CCN(c2nc(-c3cccs3)cs2)CC1 the results were RE007 growth inh 22.2%, MARV entry inh inconclusive, LASV entry inh 15.3%, 2A StopGo 49.3%[activator] and SARS PLpro yeast 1.8%.
`COc1ccc(-c2nc3c(c4nnc(SC(C)C(=O)Nc5ccccc5)n24)COC(C)(C)C3)cc1` (configuration not stated) gave RE007 growth inh -2.6%, Cruzain inh Det 2.1%, MARV entry inh -1.6%, LASV entry inh 18.7%, NS1 function inh 3.2%, 2A StopGo -15.9%, SARS PLpro yeast inconclusive and Cruzain inh noDet inconclusive.
`Cc1ccc(OCC(=O)NCc2ccco2)cc1C` gave RE007 growth inh inconclusive, Cruzain inh Det 2.0%, MARV entry inh 29.8%, LASV entry inh -9.3%, NS1 function inh -6.9%[9.22 µM], 2A StopGo 17.8%, SARS PLpro yeast -8.8% and Cruzain inh noDet 7.4%.
Screening Cc1nc(Nc2ccc3c(c2)OCCO3)c2nnn(Cc3ccccc3Cl)c2n1 returned RE007 growth inh -2.6%, Cruzain inh Det -6.0%, MARV entry inh inconclusive, LASV entry inh inconclusive, NS1 function inh -7.6%, 2A StopGo -19.1%, SARS PLpro yeast -10.5% and Cruzain inh noDet -5.6%.
For CCOC(=O)c1c(NC(=O)CSc2ncnc3[nH]ncc23)sc2c1CCC(C)C2 (configuration not stated) the results were RE007 growth inh 0.2%, MARV entry inh inconclusive, LASV entry inh -15.5%[46.1 µM], NS1 function inh 18.5%, 2A StopGo 5.1% and SARS PLpro yeast -2.2%.
Screening COc1cc(C(C)=O)ccc1COc1ccc(C(=O)OCC(=O)NC2CCS(=O)(=O)C2)cc1OC (configuration not stated) returned RE007 growth inh 6.9%, Cruzain inh Det -5.2%, MARV entry inh 0.7%, LASV entry inh -11.7%, NS1 function inh -2.1%, 2A StopGo -19.4%, SARS PLpro yeast inconclusive and Cruzain inh noDet inconclusive.
For N/C(=N\OC(=O)c1ccc2c(c1)OCO2)c1cccc(Br)c1 the results were RE007 growth inh -23.7%, MARV entry inh inconclusive, NS1 function inh -68.4%, 2A StopGo -22.6% and SARS PLpro yeast -5.8%.
For COc1ccc(C)cc1Nc1nc(N)c2ccccc2n1 the results were RE007 growth inh -18.4%, MARV entry inh inconclusive, LASV entry inh -17.5%[46.1 µM], NS1 function inh -12.4%, 2A StopGo -19.4% and SARS PLpro yeast 1.4%.
For Cc1ccc(SCc2nc3ncccn3c2Br)cc1 the results were RE007 growth inh 11.7%, MARV entry inh inconclusive, LASV entry inh -0.6%[46.1 µM], NS1 function inh -3.8%, 2A StopGo 1.6% and SARS PLpro yeast 0.4%.
`COc1ccc(S(=O)(=O)N(C)C)cc1NCC(=O)Nc1cccc(C#N)c1` gave RE007 growth inh -1.9%, MARV entry inh -1.7%[46.1 µM], LASV entry inh inconclusive, 2A StopGo -12.2% and SARS PLpro yeast -0.2%.
`CSc1nc2c(cc1C#N)CCCCC2` gave Cruzain inh Det -4.1%, MARV entry inh inconclusive, LASV entry inh 10.8%, NS1 function inh -1.3%, 2A StopGo -20.7%, SARS PLpro yeast 14.5% and Cruzain inh noDet 3.3%.
c1ccc2c(c1)nc(N1CCOCC1)c1c3ccccc3[nH]c21 was read as RE007 growth inh 2.0%, Cruzain inh Det -21.6%, MARV entry inh inconclusive, LASV entry inh 3.5%, NS1 function inh -56.6%, 2A StopGo 11.4%, SARS PLpro yeast -15.8% and Cruzain inh noDet -3.8%.
C=CCNCCCCOc1ccccc1-c1ccccc1 was read as RE007 growth inh -6.1%, Cruzain inh Det -3.2%, MARV entry inh inconclusive, LASV entry inh inconclusive, NS1 function inh -7.0%, 2A StopGo 1.3%, SARS PLpro yeast -2.8% and Cruzain inh noDet 3.9%.
For Cn1c(=O)c2c(nc(Br)n2CCSc2ncccn2)n(C)c1=O the results were RE007 growth inh 13.4%, Cruzain inh Det 0.3%, MARV entry inh 0.1%, LASV entry inh 4.5%, NS1 function inh 2.0%, 2A StopGo -13.6%, SARS PLpro yeast 1.2% and Cruzain inh noDet -7.3%.

Among those listed so far, 2 have a Cl atom:
Screening COc1ccc(NC(=O)CCNS(=O)(=O)c2ccc3c(c2)CCN3C(=O)C2CC2)cc1Cl returned Cruzain inh Det -3.8%, LASV entry inh -12.6%[46.1 µM], 2A StopGo -18.3% and Cruzain inh noDet -0.1%.
Screening Cc1nc(Nc2ccc3c(c2)OCCO3)c2nnn(Cc3ccccc3Cl)c2n1 returned RE007 growth inh -2.6%, Cruzain inh Det -6.0%, MARV entry inh inconclusive, LASV entry inh inconclusive, NS1 function inh -7.6%, 2A StopGo -19.1%, SARS PLpro yeast -10.5% and Cruzain inh noDet -5.6%.

Later entries
Screening CC12CC(NC(=O)N1Cc1ccccc1)c1ccccc1O2 (configuration not stated) returned RE007 growth inh 5.2%, Cruzain inh Det 1.2%, MARV entry inh 15.2%, LASV entry inh 2.3%, NS1 function inh -1.6%, 2A StopGo -28.8%, SARS PLpro yeast 11.9% and Cruzain inh noDet 4.9%.
For Cc1cccc(NC(=O)c2cc3c(C)nn(-c4ccccc4)c3s2)c1 the results were Cruzain inh Det -4.8%, MARV entry inh inconclusive, LASV entry inh 1.1%[46.1 µM], 2A StopGo 0.0% and Cruzain inh noDet inconclusive.
Screening COc1ccc(C2CC(=O)N(c3ccccc3)C3=C2C(=O)CCC3)cc1 (configuration not stated) returned RE007 growth inh 7.6%, MARV entry inh -0.4%, LASV entry inh 27.2%, NS1 function inh 4.0%, 2A StopGo -10.7% and SARS PLpro yeast 0.3%.
For CCn1c(=O)c(C(=O)Nc2ccccc2C)c(O)c2ccccc21 the results were RE007 growth inh 0.4%, Cruzain inh Det -8.6%, MARV entry inh 28.5%, LASV entry inh 3.9%, NS1 function inh 9.1%, 2A StopGo 0.0%, SARS PLpro yeast 23.0% and Cruzain inh noDet -8.9%.
C[C@@H]1NC(=O)c2cc([N+](=O)[O-])cc(I)c2OCC[C@@H](C(=O)NC(CC(=O)O)C(N)=O)NC(=O)[C@H](CCC(=O)O)NC1=O (some centres not stated) was read as RE007 growth inh -2.5%, Cruzain inh Det 1.4%, MARV entry inh 11.6%, LASV entry inh 5.1%, NS1 function inh -7.5%, 2A StopGo 11.1%, SARS PLpro yeast 2.3% and Cruzain inh noDet inconclusive.
Screening O=c1cc(CN2CCN(c3ccccc3)CC2)c2cc(O)c(-c3ccccc3)cc2o1 returned RE007 growth inh 1.4%, Cruzain inh Det -2.0%, MARV entry inh inconclusive, LASV entry inh -14.1%, NS1 function inh -5.3%, 2A StopGo -20.1%, SARS PLpro yeast -3.8% and Cruzain inh noDet 10µM*.
`COC(=O)c1ccc(COc2ccccc2/C=C(\C#N)C(=O)Nc2ccc(C)cc2)cc1` gave RE007 growth inh 6.6%, Cruzain inh Det -0.8%, MARV entry inh inconclusive, LASV entry inh 6.9%, NS1 function inh 3.8%, 2A StopGo 37.8%[activator], SARS PLpro yeast -7.9% and Cruzain inh noDet -19.4%.
`Cc1c(CN2CCC(C)CC2)c(=O)n(-c2ccccc2)n1C` gave RE007 growth inh 4.4%, Cruzain inh Det 8.7%, MARV entry inh inconclusive, LASV entry inh 17.6%, NS1 function inh -4.3%, 2A StopGo -12.7%, SARS PLpro yeast -2.0% and Cruzain inh noDet -0.3%.
CCOC(=O)c1c(NC(=O)Nc2ccccc2)sc(C)c1C was read as RE007 growth inh 22.2%, Cruzain inh Det -7.5%, MARV entry inh -1.7%, LASV entry inh 10.4%, NS1 function inh -1.0%, 2A StopGo -9.3%, SARS PLpro yeast -10.6% and Cruzain inh noDet 1.1%.
For O=C1C=C(Nc2ccccc2)C(=O)c2ccccc21 the results were RE007 growth inh inconclusive, NS1 function inh -51.1%, 2A StopGo 9.1% and SARS PLpro yeast -19.5%.
For O=C(Nc1nccs1)C1CCN(S(=O)(=O)c2cccs2)CC1 the results were RE007 growth inh -11.1%, MARV entry inh -23.1%, LASV entry inh 0.7%, NS1 function inh 1.0%, 2A StopGo -23.7% and SARS PLpro yeast 0.4%.
O=[N+]([O-])c1cc(S(=O)(=O)N2CCCC2)ccc1SCCO was read as RE007 growth inh 3.1%, MARV entry inh 10.8%[46.1 µM], LASV entry inh 9.5%[46.1 µM], 2A StopGo -4.8% and SARS PLpro yeast 2.4%.
`CCN(CC)CCNc1nc2c(c(=O)[nH]c(=O)n2C)n1CC(O)COc1ccc(Cl)cc1Cl` (configuration not stated) gave RE007 growth inh -11.0%, Cruzain inh Det -2.9%, MARV entry inh -0.2%, LASV entry inh 12.9%, NS1 function inh 3.4%, 2A StopGo -2.9%, SARS PLpro yeast -3.2% and Cruzain inh noDet 0.3%.
`COc1ccc(C2(C(=O)O)CCCC2)cc1` gave RE007 growth inh 5.0%, Cruzain inh Det 1.5%, MARV entry inh 13.5%, LASV entry inh 3.2%, NS1 function inh -31.2%, 2A StopGo -1.9%, SARS PLpro yeast -10.0% and Cruzain inh noDet -11.8%.
COc1ccc2c(CNCc3cccs3)c(C(=O)O)n(Cc3ccccc3)c2c1 was read as Cruzain inh Det -1.7%, LASV entry inh -13.4%[46.1 µM], 2A StopGo 31.7%[activator] and Cruzain inh noDet -1.3%.
